BJeLR viab HTS: BJeLR cell viability loss, primary screen, luminescence, CellTiterGlo ATP; BJeLR fibroblasts viability, 48 h; HRASV12, hTERT and SV40 LT/ST transformed; viability loss activity score, % (no concentration beside the values); hit rate 0.64% among 30,000; in the data active = viability loss activity score above about 50%; about a fifth of its hits are not listed in these tables;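 also: higher score means fewer live cells and less ATP luminescence; stock transfer was 50 or 100 nL into about 30 µL; 0% = vehicle wells and 100% = a reference killing control; one replicate is shown; the record names a cut of 85%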
A1 inhib: inducers of caspase activity in MEF A1-2A-BIM cells, primary screen, A1 inhibitor project, cell-based, CaspaseGlo luminescence; caspase-Glo luminescence, 3 h; percent of clofoctol signal, DMSO as zero; caspase activation, % (concentration not given with the values); hit rate 0.51% among 21,000; AID 2241, 2010;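 active = most replicate scores above 10, or exactly half above 10 with mean activity above 10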;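 also: effector caspase 3 and 7 activity cleaving a DEVD luciferin substrate; 50 nL library stock added to about 30 µL; numbers are from one replicate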
* hit, by the source's call. The list is partial (hit frequency here may not be typical).

COc1ccc(S(=O)(=O)Nc2ccc3c(c2)C(=O)N([C@@H](C)CO)C[C@@H](C)[C@@H](CN(C)S(=O)(=O)c2c(C)noc2C)O3)cc1 was read as BJeLR viab HTS 1.7.
For CC1=C(CC/C(C)=C/C(=O)O)[C@@]2(C)CCCC(C)(C)C2CC1 (stereo partly specified) the results were BJeLR viab HTS -8.2 and A1 inhib -0.4.
For C[C@H]1CN([C@@H](C)CO)C(=O)c2cccc(NS(C)(=O)=O)c2O[C@@H]1CN(C)S(=O)(=O)c1ccccc1 the results were BJeLR viab HTS 1.8.
`C[C@H](CO)N1C[C@H](C)[C@@H](CN(C)Cc2ccccc2)Oc2ccc(NS(=O)(=O)c3ccccc3)cc2C1=O` gave BJeLR viab HTS -6.0 and A1 inhib 1.2.
O=C(CSC(=S)N1CCCCC1)N1c2ccccc2CCc2ccccc21 was read as BJeLR viab HTS -0.9 and A1 inhib 0.4.
COc1ccccc1NC(=O)Cc1coc2c(C)c(C)ccc12 was read as BJeLR viab HTS -4.4 and A1 inhib 0.4.
CCC(=O)N1CCc2cc(S(=O)(=O)NC(CC(C)C)C(=O)N3CCC(C)CC3)ccc21 (stereo unspecified) was read as BJeLR viab HTS -6.8.
`O=C(NCc1cn2ccsc2n1)c1cccs1` gave BJeLR viab HTS -2.1 and A1 inhib -0.2.
For C[C@H]1CN([C@@H](C)CO)C(=O)c2cc(NC(=O)Nc3cccc4ccccc34)ccc2O[C@@H]1CN(C)Cc1ccc(-c2ccccc2)cc1 the results were BJeLR viab HTS -3.2 and A1 inhib 1.0.
`C[C@@H]1CN([C@H](C)CO)C(=O)c2cc(NC(=O)C3CCCCC3)ccc2O[C@H]1CN(C)C(=O)Nc1ccc(F)cc1` gave BJeLR viab HTS 0.5 and A1 inhib 1.3.
`Oc1oc(-c2ccc(Br)cc2)nc1C=Nc1ccccc1` gave BJeLR viab HTS -3.9 and A1 inhib -0.5.
`C[C@@H]1CN([C@@H](C)CO)C(=O)c2cccc(NC(=O)Nc3ccc(C(F)(F)F)cc3)c2O[C@H]1CN(C)Cc1ccc(-c2ccccc2)cc1` gave BJeLR viab HTS 7.0.
Screening Cc1ccccc1CN1C(=O)C(O)(CC(=O)c2ccc3c(c2)CCCC3)c2ccccc21 (stereo unspecified) returned BJeLR viab HTS -0.3 and A1 inhib -0.8.
`CC1Cc2cc(S(=O)(=O)NN3CCOCC3)ccc2N1C(=O)C1CC1` (stereo unspecified) gave BJeLR viab HTS -9.1 and A1 inhib 0.3.
`C[C@@H]1CN([C@@H](C)CO)C(=O)c2cccc(NC(=O)C3CC3)c2O[C@@H]1CN(C)Cc1ccc2c(c1)OCO2` gave BJeLR viab HTS -3.4.
Screening C[C@H](CO)N1C[C@H](C)[C@H](CN(C)C(=O)NC2CCCCC2)Oc2ccc(NC(=O)CCC(F)(F)F)cc2C1=O returned BJeLR viab HTS 1.2 and A1 inhib 1.2.
Cc1cccc(C(=O)N(CCN2C(=O)c3ccccc3C2=O)c2cccc3ccccc23)c1 was read as BJeLR viab HTS 3.9 and A1 inhib 1.4.
For COc1ccc(NC(=O)Nc2cccc3c2O[C@H](CN(C)Cc2ccc(C(F)(F)F)cc2)[C@H](C)CN([C@@H](C)CO)C3=O)cc1 the results were BJeLR viab HTS -4.6.
Screening Cc1ccc(Cn2cc(CCC(=O)O)c3ccccc32)cc1 returned BJeLR viab HTS 4.4 and A1 inhib 1.0.
`COc1c(CC=C(C)C)c2c(c3oc(=O)c(-c4ccc(OC(C)=O)cc4)c(OC(C)=O)c13)C=CC(C)(C)O2` gave BJeLR viab HTS -5.4 and A1 inhib -0.1.
`CN1C(=O)C2C=CC=CC2N=C1SCC(N)=O` (stereo unspecified) gave BJeLR viab HTS -1.5 and A1 inhib 1.0.
CCOC(=O)c1cc(C#N)c(N2CCN(C(=O)c3snnc3C)CC2)nc1C(F)(F)F was read as BJeLR viab HTS -2.5 and A1 inhib 0.4.
`COc1ccc(S(=O)(=O)Nc2ccc3c(c2)C(=O)N([C@H](C)CO)C[C@H](C)[C@H](CN(C)S(=O)(=O)c2ccc(Cl)cc2)O3)cc1` gave BJeLR viab HTS -2.6 and A1 inhib 0.1.
Screening Cc1noc(C)c1NC(=O)N(C)C[C@H]1Oc2c(NC(=O)Nc3ccc4c(c3)OCO4)cccc2C(=O)N([C@H](C)CO)C[C@@H]1C returned BJeLR viab HTS -1.7.
C[C@H](CO)N1C[C@H](C)[C@H](CN(C)S(=O)(=O)c2ccc(Cl)cc2)Oc2c(NS(=O)(=O)c3cccs3)cccc2C1=O was read as BJeLR viab HTS 1.1.
O=C(NCCC1=CCCCC1)c1ccc(Cl)cc1 was read as BJeLR viab HTS 4.5 and A1 inhib -4.7.
CCNC(=O)C1CCCc2c1[nH]c1ccc(Cl)cc21 (stereo unspecified) was read as BJeLR viab HTS -1.5.
Cc1cc(C(=O)Nc2cccc3c2O[C@@H](CN(C)Cc2ccc4c(c2)OCO4)[C@@H](C)CN([C@H](C)CO)C3=O)n(C)n1 was read as BJeLR viab HTS -2.2.
For CCN(Cc1ccccc1)C(=O)c1oc(=O)c2ccccc2c1-c1ccc(C)cc1 the results were BJeLR viab HTS -0.4.
Screening Cc1ccc(-c2nn(C(C)(C)C)c3ncnc(N)c23)cc1 returned BJeLR viab HTS 15 and A1 inhib 11*.

The last five entries of the part above open the next one.
O=C(NCCC1=CCCCC1)c1ccc(Cl)cc1 was read as BJeLR viab HTS 4.5 and A1 inhib -4.7.
CCNC(=O)C1CCCc2c1[nH]c1ccc(Cl)cc21 (stereo unspecified) was read as BJeLR viab HTS -1.5.
Cc1cc(C(=O)Nc2cccc3c2O[C@@H](CN(C)Cc2ccc4c(c2)OCO4)[C@@H](C)CN([C@H](C)CO)C3=O)n(C)n1 was read as BJeLR viab HTS -2.2.
For CCN(Cc1ccccc1)C(=O)c1oc(=O)c2ccccc2c1-c1ccc(C)cc1 the results were BJeLR viab HTS -0.4.
Screening Cc1ccc(-c2nn(C(C)(C)C)c3ncnc(N)c23)cc1 returned BJeLR viab HTS 15 and A1 inhib 11*.
`C[C@@H]1CN([C@H](C)CO)C(=O)c2cc(NC(=O)Nc3ccc(F)cc3)ccc2O[C@H]1CN(C)S(=O)(=O)c1cn(C)cn1` gave BJeLR viab HTS -0.6 and A1 inhib 0.0.
Screening COc1ccc(CN(C)C[C@H]2Oc3ccc(NC(=O)NC(C)C)cc3C(=O)N([C@H](C)CO)C[C@H]2C)cc1 returned BJeLR viab HTS -4.4 and A1 inhib 0.4.
For Cc1cc(C)nc(NS(=O)(=O)c2ccc(NC(=O)C3(c4ccccc4)CCOCC3)cc2)n1 the results were BJeLR viab HTS 1.8.
Screening COC(=O)C1=C[C@H](O[C@@H]2O[C@H](CO)[C@@H](O)[C@H](O)[C@H]2O)C[C@H]2[C@]3(C)C[C@@H](c4ccoc4)OC(=O)[C@H]3CC[C@@]12C returned BJeLR viab HTS -6.2 and A1 inhib 1.3.
`C[C@@H]1CN([C@@H](C)CO)C(=O)c2cccc(NC(=O)Nc3ccc(C(F)(F)F)cc3)c2O[C@H]1CN(C)C(=O)Nc1ccc(C(F)(F)F)cc1` gave BJeLR viab HTS 0.6.
COc1cc(CN(C)C)c(O)c(CN(C)C)c1 was read as BJeLR viab HTS -1.4 and A1 inhib 0.5.
`CC(C)NC(=O)Nc1cccc2c1O[C@@H](CN(C)CC1CCCCC1)[C@@H](C)CN([C@@H](C)CO)C2=O` gave BJeLR viab HTS 0.8.
For C#C[C@]1(O)CCC2C3CCc4cc(O)ccc4C3CC[C@@]21C (stereo partly specified) the results were BJeLR viab HTS -1.3 and A1 inhib 0.2.
`COc1ccc(NC(=O)c2ccc3ncsc3c2)cc1` gave BJeLR viab HTS 1.0 and A1 inhib -5.3.
For Cn1nc(C(F)(F)F)c(-c2cccc(C(F)(F)F)c2)c1NC(=O)c1nccnc1C(=O)O the results were BJeLR viab HTS 6.7.
Screening Cc1cc(C(=O)Nc2cccc3c2O[C@@H](CN(C)CC2CCCCC2)[C@H](C)CN([C@H](C)CO)C3=O)n(C)n1 returned BJeLR viab HTS 1.6.
Screening COc1ccccc1/C=C/C=N\N1CCN(c2ccccc2)CC1 returned BJeLR viab HTS -0.2 and A1 inhib -0.8.
Screening CC(C)Nc1nc(-c2ccccc2)nc2ccccc12 returned BJeLR viab HTS -2.3 and A1 inhib -1.1.
`Cc1ccc(S(=O)(=O)Nc2ccc3c(c2)C(=O)N([C@@H](C)CO)C[C@H](C)[C@@H](CN(C)C(=O)Nc2ccc4c(c2)OCO4)O3)cc1` gave BJeLR viab HTS -1.4 and A1 inhib 0.6.
Screening COC(=O)c1ccc(OCC2c3cc(OC)c(OC)cc3CCN2C(=O)c2ccccc2)cc1 (stereo unspecified) returned BJeLR viab HTS -0.9 and A1 inhib -0.2.

2 successive compounds out of the list so far, quoted:
O=C(CSC(=S)N1CCCCC1)N1c2ccccc2CCc2ccccc21 was read as BJeLR viab HTS -0.9 and A1 inhib 0.4.
COc1ccccc1NC(=O)Cc1coc2c(C)c(C)ccc12 was read as BJeLR viab HTS -4.4 and A1 inhib 0.4.

Further structures:
For CCN(CC)C(=O)CSc1c2c(nc3ccc(Cl)cc13)CCCC2 the results were BJeLR viab HTS 13.
For COc1ccc2c(=O)c(CC(=O)O)coc2c1 the results were BJeLR viab HTS -0.1 and A1 inhib -0.4.
`C[C@H]1CN([C@@H](C)CO)C(=O)c2cc(NC(=O)Nc3ccc4c(c3)OCO4)ccc2O[C@H]1CN(C)Cc1ccc(-c2ccccc2)cc1` gave BJeLR viab HTS -1.1 and A1 inhib 0.1.
`O=C(O)C1C2CC=CC2c2cc(Cl)cc3c2N1CC1CC=CC31` (stereo unspecified) gave BJeLR viab HTS 1.3 and A1 inhib -0.3.
C[C@H]1CN([C@@H](C)CO)C(=O)c2cccc(NC(=O)C3CC3)c2O[C@H]1CN(C)S(=O)(=O)c1ccc(Cl)cc1 was read as BJeLR viab HTS -1.1.
`C[C@@H]1CN([C@@H](C)CO)C(=O)c2cccc(NC(=O)Nc3ccc(F)cc3)c2O[C@H]1CN(C)C(=O)NC1CCCCC1` gave BJeLR viab HTS -5.0.
`COc1ccc(NC(=O)N(C)C[C@@H]2Oc3c(NS(=O)(=O)c4ccc(OC)cc4)cccc3C(=O)N([C@@H](C)CO)C[C@H]2C)cc1` gave BJeLR viab HTS -2.5.
Screening Cc1cc(C)cc(NC(=O)c2cc3ccccc3o2)c1 returned BJeLR viab HTS 4.0 and A1 inhib -4.4.
Screening C[C@@H]1CN([C@H](C)CO)C(=O)c2cc(NS(=O)(=O)c3cn(C)cn3)ccc2O[C@H]1CN(C)Cc1ccc(C(=O)Nc2ccccc2N)cc1 returned BJeLR viab HTS 1.8.
`C[C@@H]1O[C@@H](O[C@H]2[C@H](O[C@H]3[C@H](O)[C@@H](C(=O)O)O[C@@H](O[C@H]4CC[C@@]5(C)C(CC[C@]6(C)C5CC[C@]57OC[C@@]8(CCC(C)(C)CC85)[C@H](O)C[C@]76C)C4(C)C)[C@@H]3O[C@@H]3O[C@H](CO)[C@@H](O[C@@H]4OC[C@@H](O)[C@H](O)[C@H]4O)[C@H](O)[C@H]3O)O[C@H](CO)[C@H](O)[C@@H]2O)[C@H](O)[C@H](O)[C@H]1O` (stereo partly specified) gave BJeLR viab HTS 5.9 and A1 inhib -1.1.
`Cc1ccccc1NC(=O)CC(C)C` gave BJeLR viab HTS -3.4 and A1 inhib 0.0.
Screening O=C(NCC1OCCc2ccccc21)C(c1ccccc1)c1ccccc1 (stereo unspecified) returned BJeLR viab HTS 1.7.
COc1ccc(CN(C)C[C@H]2Oc3c(NC(=O)c4ccncc4)cccc3C(=O)N([C@H](C)CO)C[C@@H]2C)cc1 was read as BJeLR viab HTS 4.9.
`CC(C)NC(=O)Nc1ccc2c(c1)C(=O)N([C@@H](C)CO)C[C@@H](C)[C@@H](CN(C)C)O2` gave BJeLR viab HTS -3.5 and A1 inhib -1.4.
`Cc1nn(CC(=O)NCc2ccc(OC(C)C)cc2)c(=O)c2cc3occc3n12` gave BJeLR viab HTS 1.6 and A1 inhib 0.4.
`CCN(CC)c1ncc2c(=S)[nH]c(=S)[nH]c2n1` gave BJeLR viab HTS 2.5 and A1 inhib -1.4.
`CCOc1ccc(/C=N\n2c(C)nnc2C)cc1` gave BJeLR viab HTS -0.6 and A1 inhib 0.1.
`COc1cc(O)c(C(=O)CCc2ccccc2)c(O)c1Cc1ccccc1O` gave BJeLR viab HTS 6.6 and A1 inhib -0.3.
Cc1cc(C(=O)N(c2ccccc2)C(C)C2CC2)c(Cl)cc1Cl (stereo unspecified) was read as BJeLR viab HTS -7.1 and A1 inhib -0.4.
`C[C@H]1CN([C@@H](C)CO)C(=O)c2cccc(NC(=O)C3CCOCC3)c2O[C@H]1CN(C)S(C)(=O)=O` gave BJeLR viab HTS 1.2.
`Cc1ccc(S(=O)(=O)Nc2cccc3c2O[C@@H](CN(C)C)[C@@H](C)CN([C@H](C)CO)C3=O)cc1` gave BJeLR viab HTS -4.7.
Cc1ccc(S(=O)(=O)Nc2cccc3c2O[C@@H](CN(C)C(=O)NC2CCCCC2)[C@H](C)CN([C@@H](C)CO)C3=O)cc1 was read as BJeLR viab HTS -4.7.
`C=CCSc1nc2c(c(=O)n1Cc1ccco1)C1(CCCCC1)Cc1ccccc1-2` gave BJeLR viab HTS 0.5 and A1 inhib -0.5.
`C[C@@H]1CN([C@@H](C)CO)C(=O)c2cccc(NS(=O)(=O)c3ccc(F)cc3)c2O[C@H]1CN(C)Cc1ccc(Cl)c(Cl)c1` gave BJeLR viab HTS -1.1.

Bioassay records deposited in PubChem by Broad Institute.
